Rango dissoc inh: inhibition of RanGTP-driven Rango-importin beta dissociation | Biochemical FRET Rango-importin beta, RanGTP-induced dissociation | 340,000 tested, 0.071% active | AID 540253 | Potency, µM (series often up to 46.1 µM), without a hit: at the top dose activity change, negative = inhibition | O95149+P62826; active means falling FRET ratio curve, often poorly fitted, with flat reads before Ran was added; inconclusive means other falling curves, or compound fluorescence or quenching; inactive means flat or rising ratio curve;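 also: potency is read from the fitted curve at half-maximal effect; % of control where 0% means no effect; nearly all actives have a fitted effect of over 45% in size; -100% = wells without RanGTP and RCC1; the record marks most hits as doubtful in a second field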
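Compounds preincubate 5 min with complex of recombinant Rango and importin beta in PBS with 1 mM DTT. Ran (0.6 uM) loaded with 2 mM GTP plus 0.2 uM RCC1 starts dissociation; FRET is recorded 45 min later.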
miR-21 FLuc: raises the signal of a miR-21 reporter. Potency, µM (highest dose often 38.3 µM), inactives show at the highest dose reporter change, positive = more light. 340,000 tested, under 10 active. HeLa miR-21 FLuc reporter, luciferase, 48 h; active = well fitted rising curve with a large enough effect; inconclusive = small, poorly fitted or top-dose-only effect; inactive = no such curve, though single readings can be large or run the other way;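 also: % of control where 0% means no effect; miR-21 action dims this reporter so a rising signal means less miR-21 action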
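HeLa cells stably expressing CMV-driven firefly luciferase with a downstream miR-21 binding sequence, endogenously expressing miR-21, were treated with titrations (up to about 40uM final) for 48 hours at 37 degree Celsius. Luciferase luminescence was read after lysis.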
Rango-impB inh: prevents formation of the Rango-importin beta complex; AID 540263; Potency, µM (titrated, usually from 92.2 µM), without a hit: top-dose inhibition of complex formation; Rango CFP/YFP FRET sensor + importin beta, 45 min; 340,000 tested, 0.031% active; active = rising FRET ratio curve, often small or poorly fitted; inconclusive = mostly compound fluorescence or quenching in the first reads; inactive = flat curves in all reads;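 also: potency is read from the fitted curve at half-maximal effect; 0% = DMSO wells and 100% = buffer wells lacking importin beta; nearly all actives have a fitted effect of over 15% in size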
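Inhibition scored from the CFP 486 nm/YFP 530 nm FRET ratio 45 min after adding 0.125 microM importin beta to 50 nM Rango biosensor preincubated 5 min with compound (room temperature, PBS with DTT, Tween-20, BSA). No-importin wells as positive control.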
GLA inh pH 4.5: blocks human alpha-galactosidase A at pH 4.5 | P06280 | purified enzyme, 4-MU-alpha-Gal fluorescence, pH 4.5 | activity change, negative = inhibition, % at 105 µM | 230,000 tested, under 10 active; inconclusive = small, poorly fitted or top-dose-only inhibition, or a rising curve; inactive = flat fitted curve, though single readings scatter; no compound was filed as active;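 also: 0% = full activity with enzyme and -100% = basal without enzyme; dose as in the result columns while the protocol names 77 µM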
Target sequence (P06280 whole entry, looked up): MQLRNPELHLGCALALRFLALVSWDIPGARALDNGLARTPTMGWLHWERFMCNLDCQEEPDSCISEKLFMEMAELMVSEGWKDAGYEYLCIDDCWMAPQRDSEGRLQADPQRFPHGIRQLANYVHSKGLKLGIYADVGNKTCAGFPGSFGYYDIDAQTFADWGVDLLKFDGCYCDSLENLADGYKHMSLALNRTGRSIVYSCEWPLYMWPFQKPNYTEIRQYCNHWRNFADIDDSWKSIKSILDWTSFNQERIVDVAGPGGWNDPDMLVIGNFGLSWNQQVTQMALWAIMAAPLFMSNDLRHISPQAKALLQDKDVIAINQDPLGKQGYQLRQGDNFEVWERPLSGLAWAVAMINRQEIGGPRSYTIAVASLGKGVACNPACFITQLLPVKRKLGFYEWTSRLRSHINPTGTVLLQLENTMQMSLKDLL
* marks the source's active call; other numbers are inactive results; ? = inconclusive; / = not tested or not shown. The list is partial (hit frequency here may not be typical).

No.	structure	Rango-impB inh	Rango dissoc inh
1	COc1cc(NC(=O)CN2CCCCC2)c(C)cc1[N+](=O)[O-]	-0.6%	6%
2	CC(=O)C1=C(C)OC(N)=C(C#N)C1c1cc([N+](=O)[O-])ccc1Cl (stereo not given)	-1.7%	0%
3	CC(=O)O/N=C(\N)c1cnn2c(C(F)(F)F)cc(C(F)(F)F)nc12	0.4%	18%
4	COc1ccc(Cl)cc1C(=O)OCC(=O)NCc1cccs1	0.3%	7%
5	CCCCn1c(/C=C/c2ccco2)nc2ccccc21	?	?
6	Cc1nc(SCc2ccc(F)cc2)c2oc3ccccc3c2n1	1.8%	-2%
7	O=C1N=C(N2C=CC(=C3C=CNC=C3)C=C2)/C(=C/N=NC(=O)c2ccccc2)S1	2.4%	-7%
8	O=C(COc1ccccc1)c1cn(CC(=O)N2CCOCC2)c2ccccc12	0.4%	-7%
9	N/C(=N\OCc1ccc([N+](=O)[O-])cc1)c1ccncc1	1.5%	-12%
10	O=C1CCC(=O)N1CCSC(=S)N1CCSCC1	-0.7%	-1%

No.	GLA inh pH 4.5	miR-21 FLuc
1	7	-9%
2	-4	17%
3	-5	0%
4	/	/
5	7	-2%
6	-5	0%
7	/	3%
8	0	-11%
9	6	-37%
10	5	-19%

Other records follow:
No.	structure	Rango-impB inh	Rango dissoc inh
11	CC(=O)Nc1ccc(N2CCCC2)cc1	0.7%	-12%
12	Cc1c(NC(=O)CN2c3ccccc3CC2C)c(=O)n(-c2ccccc2)n1C (stereo not given)	-1.5%	-16%
13	COc1cc(OC)c(NC(=O)/C=C/C(=O)O)cc1Cl	0.0%	-2%
14	C/C(Cn1cnc([N+](=O)[O-])n1)=N\NC(=O)c1ccncc1	-2.7%	-8%
15	CN(C(=O)c1ccc([N+](=O)[O-])cc1)c1ccccc1C(=O)NCc1ccccc1	0.5%	-7%
16	Cc1[nH]c2ccccc2c1C(Nc1nccs1)c1ccncc1 (stereo not given)	-0.6%	-5%
17	O=S(=O)(Nc1cc(C(F)(F)F)ccc1N1CCOCC1)c1ccccc1	4.4%	-9%
18	CCCCN(CCCC)C(=O)C[n+]1cccc(/C=N/O)c1	2.1%	-1%
19	O=C(NCC(=O)N(Cc1ccco1)C(C(=O)NC1CCCCC1)c1ccncc1)c1cccs1 (stereo not given)	1.8%	2%
20	COc1cc(C(=O)N2CCC(NC(=O)C(Cc3ccccc3)NC(C)=O)CC2)cc(OC)c1OC (stereo not given)	4.4%	30%

No.	GLA inh pH 4.5	miR-21 FLuc
11	1	-2%
12	-9	-2%
13	0	4%
14	5	-3%
15	/	1%
16	-1	-2%
17	-2	1%
18	-9	-1%
19	-1	0%
20	-19	0%

Next part.
No.	structure	Rango-impB inh	Rango dissoc inh
21	Cc1ccc2nc(NC(=O)c3ccc(OCC4CCCO4)cc3)sc2c1 (stereo not given)	-3.2%	0%
22	OCCC1CN(Cc2ccon2)CCN1Cc1ccccc1 (stereo not given)	0.9%	11%
23	CCOC(=O)c1cc2occc2n1CC(=O)NC1CCCCC1C (stereo not given)	0.2%	-11%
24	COc1cccc(C(=O)Nc2nc(-c3ccc(S(=O)(=O)N4CCOCC4)cc3)cs2)c1	0.0%	17%
25	c1ccc(-c2cc(-c3ccccc3)ncn2)cc1	5.2%	-13%
26	COc1ccc(C(=O)NCCn2ccc3ccccc32)cc1	2.1%	-8%
27	Cc1ccc(NC(=O)c2ccc(NC(=O)c3ccccc3)cc2)cc1C	1.3%	4%
28	Cc1ccc(/C=N/NC(=O)CSc2ccccn2)o1	2.4%	-9%
29	CCOC(=O)N1CCN(S(=O)(=O)c2ccc(C(=O)N(CCCN(C)C)c3nc4cc(OC)ccc4s3)cc2)CC1	-0.2%	15%
30	C=CCSc1nnc(NC(=O)CSc2ccccn2)s1	-3.6%	-12%

No.	GLA inh pH 4.5	miR-21 FLuc
21	6	1%
22	2	0%
23	-12	-4%
24	-20	20%
25	/	/
26	-1	-30%
27	/	-46%
28	3	-10%
29	/	/
30	5	-37%

Quoted from above: nos. 17 to 30
No.	structure	Rango-impB inh	Rango dissoc inh
17	O=S(=O)(Nc1cc(C(F)(F)F)ccc1N1CCOCC1)c1ccccc1	4.4%	-9%
18	CCCCN(CCCC)C(=O)C[n+]1cccc(/C=N/O)c1	2.1%	-1%
19	O=C(NCC(=O)N(Cc1ccco1)C(C(=O)NC1CCCCC1)c1ccncc1)c1cccs1 (stereo not given)	1.8%	2%
20	COc1cc(C(=O)N2CCC(NC(=O)C(Cc3ccccc3)NC(C)=O)CC2)cc(OC)c1OC (stereo not given)	4.4%	30%
21	Cc1ccc2nc(NC(=O)c3ccc(OCC4CCCO4)cc3)sc2c1 (stereo not given)	-3.2%	0%
22	OCCC1CN(Cc2ccon2)CCN1Cc1ccccc1 (stereo not given)	0.9%	11%
23	CCOC(=O)c1cc2occc2n1CC(=O)NC1CCCCC1C (stereo not given)	0.2%	-11%
24	COc1cccc(C(=O)Nc2nc(-c3ccc(S(=O)(=O)N4CCOCC4)cc3)cs2)c1	0.0%	17%
25	c1ccc(-c2cc(-c3ccccc3)ncn2)cc1	5.2%	-13%
26	COc1ccc(C(=O)NCCn2ccc3ccccc32)cc1	2.1%	-8%
27	Cc1ccc(NC(=O)c2ccc(NC(=O)c3ccccc3)cc2)cc1C	1.3%	4%
28	Cc1ccc(/C=N/NC(=O)CSc2ccccn2)o1	2.4%	-9%

No.	GLA inh pH 4.5	miR-21 FLuc
17	-2	1%
18	-9	-1%
19	-1	0%
20	-19	0%
21	6	1%
22	2	0%
23	-12	-4%
24	-20	20%
25	/	/
26	-1	-30%
27	/	-46%
28	3	-10%

No.	structure	Rango-impB inh	Rango dissoc inh
29	CCOC(=O)N1CCN(S(=O)(=O)c2ccc(C(=O)N(CCCN(C)C)c3nc4cc(OC)ccc4s3)cc2)CC1	-0.2%	15%
30	C=CCSc1nnc(NC(=O)CSc2ccccn2)s1	-3.6%	-12%

No.	GLA inh pH 4.5	miR-21 FLuc
29	/	/
30	5	-37%

(listing goes on)
No.	structure	Rango-impB inh	Rango dissoc inh
31	COc1ccccc1C(=O)COC(=O)c1cccc(-n2cnnn2)c1	-0.1%	-7%
32	O=C(Nc1ccccc1)c1sc(N2CCOCC2)nc1-c1ccccc1	-1.9%	-6%
33	CCn1c2ccccc2c2cc(CN3CCN(C(=O)c4ccco4)CC3)ccc21	-1.1%	4%
34	O=C(CCC(=O)c1ccc(F)cc1)NCC1(N2CCCCC2)CCCCC1	2.7%	-2%
35	CCN(CC)c1ccc(/C=N/NC(=O)c2c(Cl)c(C)nn2C)cc1	?	?
36	Brc1ccc2ncnc(Nc3cccc4ccccc34)c2c1	?	-5%
37	O=C(Oc1ccc(C(=S)N2CCOCC2)cc1Br)c1cc(Cl)ccc1Cl	0.1%	-3%
38	Cc1ccc(NC(=O)c2ccc(OC(F)F)cc2)cc1S(=O)(=O)N(C)C	-1.1%	2%
39	CCN1C(=O)[C@@H]2[C@@H](c3ccc(-c4ccc(OC)cc4)c(OC)c3)N3CCCC[C@@]3(C(=O)OC)[C@@H]2C1=O	0.7%	0%
40	Cc1ccc(C2(C)NC(=O)N(CC(=O)Nc3cc(S(=O)(=O)N4CCOCC4)ccc3OC(C)C)C2=O)cc1 (stereo not given)	4.2%	-3%

No.	GLA inh pH 4.5	miR-21 FLuc
31	/	/
32	8	-10%
33	?	-1%
34	/	/
35	-2	-2%
36	2	23%
37	5	-1%
38	-6	0%
39	/	/
40	/	/

Further results:
No.	structure	Rango-impB inh	Rango dissoc inh
41	CC(c1ccc(F)cc1)n1c(-c2ccc3ccccc3n2)n[nH]c1=S (stereo not given)	0.4%	-13%
42	OC(COC(c1ccc(F)cc1)c1ccc(F)cc1)CN1CCCC(C(F)(F)F)C1 (stereo not given)	-1.7%	-11%
43	Cc1ccc(NCC(=O)N/N=C/c2cc(O)ccc2[N+](=O)[O-])cc1	1.0%	-4%
44	CCOC(=O)C1=C(CSc2nc3c(cc2C#N)CN(C)CC3)OC(N)=C(C#N)C1c1ccc(Cl)cc1 (stereo not given)	?	?
45	Cc1ccc(-n2ncc(C(=O)NCC3CCN(C4CCCC4)C3)c2C2CCN(C(=O)OC(C)(C)C)CC2)cc1 (stereo not given)	0.5%	9%
46	COc1ccc(OCC(=O)OCCNC(=O)c2cccnc2)cc1	8.3%	-12%
47	COc1ccc2c(c1)C(=O)N(c1ccccc1C)C(=O)C2(C)C	-1.9%	-3%
48	O=C1/C(=C/c2ccccc2)SC(=S)N1C1CCS(=O)(=O)C1 (stereo not given)	-1.7%	-8%
49	Cc1ccc(-n2c(SCC(=O)O)nc3sc4c(c3c2=O)C(C)CCC4)cc1 (stereo not given)	-5.7%	-12%
50	COc1ccc(N2C(=O)c3ccccc3S2(=O)=O)cc1	6.6%	29%

No.	GLA inh pH 4.5	miR-21 FLuc
41	4	-10%
42	/	0%
43	0	3%
44	-10	-6%
45	/	-1%
46	6	-5%
47	-3	-9%
48	1	2%
49	/	-4%
50	-4	2%

(further entries)
No.	structure	Rango-impB inh	Rango dissoc inh
51	COc1ccccc1N(C)S(=O)(=O)c1ccc(C(=O)NCC2CCCCC2)cc1	-4.8%	0%
52	O=C(CSc1ncnc2ccccc12)c1ccc2c(c1)OCCO2	?	-22%
53	COc1ccc(CC(NC(C)=O)C(=O)NC2CCN(S(=O)(=O)c3ccc(NC(C)=O)cc3)CC2)cc1OC (stereo not given)	-0.6%	-5%
54	C=CCOC(=O)C1=C(C)NC(=O)NC1c1ccc(Cl)cc1 (stereo not given)	3.6%	22%
55	CN(CC(=O)Nc1ccc(F)cc1)C(=O)COC(=O)CNC(=O)c1ccc(Cl)cc1Cl	2.3%	7%
56	O=[N+]([O-])c1cc(S(=O)(=O)Nc2ccccc2)ccc1NCc1cccnc1	-1.5%	2%
57	CCC(C)NC(=O)CCCCCn1c(=O)[nH]c2cc(OC)c(OC)cc2c1=O (stereo not given)	-0.2%	-8%
58	C=C1CCN([C@@H](C)C(=O)NCc2ccc(Cl)cc2)S(=O)(=O)c2ccccc21	-2.1%	7%
59	CCOC(=O)c1c(C)[nH]c(C)c1C(=O)CSc1ncccn1	-1.0%	-7%
60	NS(=O)(=O)c1ccc(CNS(=O)(=O)c2cccc3nonc23)cc1	-1.3%	7%

No.	GLA inh pH 4.5	miR-21 FLuc
51	/	/
52	-3	-63%
53	4	0%
54	1	-3%
55	/	/
56	8	1%
57	2	3%
58	-6	24%
59	-2	-14%
60	0	-6%

(list continues)
No.	structure	Rango-impB inh	Rango dissoc inh
61	COC(=O)c1sc(=S)n(-c2ccc(Cl)cc2)c1C	2.4%	-10%
62	COc1cc(-c2ccc3c(=O)c4ccccc4sc3c2)cc(OC)c1OC	-2.6%	?
63	O=C(NNC(=O)c1ccc2c(c1)OCO2)NC1CCCCC1	2.3%	-12%
64	CC(C)CN(C(=O)c1ccc(N2CCCC2=O)cc1)C1CCS(=O)(=O)C1 (stereo not given)	-1.0%	15%
65	CCCC1(C(=O)OCC)NC(c2ccc(N(C)C)cc2)C2C(=O)N(c3ccc4c(c3)OCCO4)C(=O)C21 (stereo not given)	-3.2%	-1%
66	Oc1c(Br)cc(Br)cc1CNc1cccc2cccnc12	?	?
67	COCCOC1CCN(C(=O)c2ccc(OC)c(OC3CCN(C(C)C)CC3)c2)CC1	-3.2%	8%
68	O=C(Nc1ccc(Nc2ccccc2)cc1)C(Cl)(Cl)Cl	-5.0%	-1%

No.	GLA inh pH 4.5	miR-21 FLuc
61	-6	-5%
62	/	/
63	-4	-10%
64	/	/
65	1	-1%
66	/	6%
67	/	0%
68	-24	-6%
